Compound activity from PubChem.
PTAP TSG101 blk: qHTS Assay for Iinhibitors of HIV-1 Budding by Blocking the Interaction of PTAP/TSG101; Tumor susceptibility gene 101 protein (Homo sapiens), Q99816; 340,000 tested, under 10 active; Fluorescence polarization, FITC-PTAP peptide / Tsg101 binding; Potency, µM (titrated, usually from 115 µM), inactives show at the top dose activity change, negative = inhibition, usual class: inhibitors; active = well fitted inhibition curve with a large enough effect in the main read-out, with a control signal flat, not every such curve was filed as active; inconclusive = small, poorly fitted or top-dose-only effect, or effect the other way, or a change in a side signal; inactive = no such curve, though single readings can be large or run the other way; note: potency is the fitted concentration of half-maximal effect; % of control where 0% means no effect
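FP read-out: FITC-PTAP peptide, 50 nM final, binding Tsg101 binding domain, 10 uM final; 20 min, r.t.; 10 mM HEPES pH 7.5, 0.15 M NaCl, 0.01% Tween 20, 3 mM EDTA, 0.1 mM TCEP.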
Menin-MLL TR inh: qHTS Assay for Inhibitors Targeting the Menin-MLL Interaction in MLL Related Leukemias: Competition With Texas Red Labeled MLL-derived Mutant Peptide. Menin + Texas Red MLL mutant peptide, fluorescence polarization. Potency, µM (titrated, usually from 61.6 µM), for the others: at the highest dose FP activity change, negative = inhibition, actives largely listed as inhibitors. 270,000 tested, 0.23% active. AID 1768, 2009; active = well fitted inhibition curve with a large enough effect in the polarisation, with a control signal flat, not every such curve was filed as active; inconclusive = small, poorly fitted or top-dose-only effect, or effect the other way, or a change in a side signal; inactive = no such curve, though single readings can be large or run the other way; the % refers to the polarisation; note: potency is the fitted concentration of half-maximal effect; % of control where 0% means no effect; many of its hits are not listed in these tables
Target sequence (O00255 whole entry, looked up): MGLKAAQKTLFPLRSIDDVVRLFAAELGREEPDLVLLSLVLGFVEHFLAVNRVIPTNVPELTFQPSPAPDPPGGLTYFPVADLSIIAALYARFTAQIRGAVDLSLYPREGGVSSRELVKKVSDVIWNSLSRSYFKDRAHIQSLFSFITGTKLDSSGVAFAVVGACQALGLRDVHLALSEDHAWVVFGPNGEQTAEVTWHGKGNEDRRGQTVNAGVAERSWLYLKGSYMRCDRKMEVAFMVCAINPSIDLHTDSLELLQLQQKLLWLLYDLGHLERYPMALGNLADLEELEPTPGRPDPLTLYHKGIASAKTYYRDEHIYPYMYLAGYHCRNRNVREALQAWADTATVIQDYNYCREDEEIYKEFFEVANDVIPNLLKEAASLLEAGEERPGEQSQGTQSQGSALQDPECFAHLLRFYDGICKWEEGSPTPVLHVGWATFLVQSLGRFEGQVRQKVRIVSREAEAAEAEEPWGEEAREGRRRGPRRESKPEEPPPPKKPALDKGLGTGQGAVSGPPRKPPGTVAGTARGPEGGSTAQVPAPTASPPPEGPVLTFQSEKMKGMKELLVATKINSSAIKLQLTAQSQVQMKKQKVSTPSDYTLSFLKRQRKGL
CXXC DNA block: qHTS Fluorescence Polarization Assay for Inhibitors of MLL CXXC domain - DNA interaction. MLL-CXXC / FITC-HOXA9 DNA fluorescence polarization. Potency, µM (titrated, usually from 115 µM), for inactives: top-dose activity change, negative = inhibition, actives largely listed as inhibitors. 290,000 tested, 0.037% active. Histone-lysine N-methyltransferase 2A (Homo sapiens), Q03164. AID 2662, 2010; active = well fitted inhibition curve with a large enough effect in the polarisation, with a control signal flat, not every such curve was filed as active; inconclusive = small, poorly fitted or top-dose-only effect, or effect the other way, or a change in a side signal; inactive = no such curve, though single readings can be large or run the other way; the % refers to the polarisation; note: potency is the fitted concentration of half-maximal effect
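Steps: dispense CXXC domain solution (7 uM) → pin compounds or unlabeled HOX-A9 DNA control → 5 min ambient → add FLSN-HOX-A9 solution (50 nM) → spin → 30 min ambient → fluorescence polarization. Tris pH 7.5/NaCl/DTT/BSA buffer.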
S-ASM inh: Inhibitors of Secretory Acid Sphingomyelinase (S-ASM): qHTS. placental ASM, HMU-PC fluorogenic substrate, 60 min. Potency, µM (highest dose often 57.5 µM), for inactives: at the top dose activity change, negative = inhibition, hits mostly inhibitors. 340,000 tested, 0.006% active. AID 504937, 2011; note: potency is the fitted concentration of half-maximal effect
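HMU-PC0 cleavage (9 uM final) by human placental ASM, 60 min at 37 °C following 10 min compound exposure at RT; stopped at pH 10, fluorescence Ex 386/Em 447 nm.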
AT treatment: qHTS Assay for Identifying a Potential Treatment of Ataxia-Telangiectasia; 320,000 tested, 0.19% active; Potency, µM (series often up to 57.5 µM), for the others: at the top dose activation, actives largely listed as activators; […] A-T fibroblasts, KAP-1 phosphorylation AlphaLISA; neocarzinostatin DNA damage 30 min before lysis; note: potency is the fitted concentration of half-maximal effect; % of control where 0% means no effect; nearly all actives have a fitted effect of over 45% in size
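ATM-like activity read as KAP-1 phosphorylation via AlphaLISA donor/acceptor antibody pairs after lysis and 6 hr at 25C. Cells were ATM-null patient fibroblasts ([…], hTERT), dosed 60 min, then exposed to the DSB inducer NCS for 30 min.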
Mito fusion act: qHTS Assay for Small Molecule Inhibitors of Mitochondrial Division or Activators of Mitochondrial Fusion; S. cerevisiae fusion-defective mutant growth rescue, CellTiterGlo 48 h; 320,000 tested, 0.23% active; Potency, µM (highest dose often 46.1 µM), for inactives: at the highest dose growth rescue (activation), usual class: activators;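 note: potency is the fitted concentration of half-maximal effect; % of control where 0% means no effect; nearly all actives have a fitted effect of over 45% in size; temperature-sensitive fusion mutants such as fzo1-1 at 37 °C on non-fermentable ethanol glycerol medium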
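Yeast fusion mutant, YPEG (non-fermentable carbon), compound, 48 h at 37C non-permissive; CellTiterGlo added, 10 min RT, luminescence read. Rescued growth = division inhibition.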
MBNL1 CUG block: qHTS Assay for Inhibitors of MBNL1-poly(CUG) RNA binding; Muscleblind-like protein 1 (Homo sapiens), Q9NR56; TR-FRET MBNL1-His/biotin-(CUG)12 binding, 665/545 ratio; Potency, µM (series often up to 57.5 µM), inactives show top-dose activity change, negative = inhibition, hits mostly inhibitors; 280,000 tested, 0.036% active; AID 2675, 2010; active = well fitted inhibition curve with a large enough effect in the signal ratio, with a control signal flat, not every such curve was filed as active; inconclusive = small, poorly fitted or top-dose-only effect, or effect the other way, or a change in a side signal; inactive = no such curve, though single readings can be large or run the other way; the % refers to the signal ratio; note: potency is the fitted concentration of half-maximal effect; % is set by controls: 0 for no effect and ±100 for the full control effect
Target sequence (Q9NR56 whole entry, looked up): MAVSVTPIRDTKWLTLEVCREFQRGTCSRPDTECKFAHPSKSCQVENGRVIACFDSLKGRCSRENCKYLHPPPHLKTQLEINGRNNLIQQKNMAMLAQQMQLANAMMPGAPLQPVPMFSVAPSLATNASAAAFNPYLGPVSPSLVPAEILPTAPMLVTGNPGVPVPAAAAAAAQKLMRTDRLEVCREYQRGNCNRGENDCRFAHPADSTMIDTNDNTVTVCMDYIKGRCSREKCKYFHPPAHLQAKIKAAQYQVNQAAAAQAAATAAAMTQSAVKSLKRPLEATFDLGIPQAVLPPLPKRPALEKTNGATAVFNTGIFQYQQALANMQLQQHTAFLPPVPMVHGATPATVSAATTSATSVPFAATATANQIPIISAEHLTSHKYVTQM
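Compounds (final 92 nM to 58 uM) are added to His-tagged MBNL1 and biotin-(CUG)12, then terbium anti-His antibody and streptavidin-XL665 (5 nM final). After 60 min at room temperature, the 665/545 nm ratio is read.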
TCR activator: Activators of T cell receptors: qHTS campaign. primary human leukocytes, anti-CD3, IL-2 HTRF, 48 h. Potency, µM (top dose mostly 9.22 µM), without a hit: top-dose activation of IL-2 secretion, most hits filed as activators. 330,000 tested, under 10 active. AID 504894, 2011; note: % of control where 0% means no effect
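Primary human leukocytes were stimulated with a-CD3 beads plus compounds for 48 hr without co-stimulation; secreted IL-2 was quantified by HTRF using a-IL-2-K (europium cryptate) and a-IL-2-d2, excited at 320nm with acceptor emission read at 665nm.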
a7 integrin act: qHTS for Activators of Integrin-Mediated Alleviation for Muscular Dystrophy | alpha7betagal myoblasts, beta-gal FDG fluorescence, 48 h | Potency, µM (top dose mostly 38.3 µM), inactives show top-dose activation, actives largely listed as activators | 350,000 tested, 0.064% active;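 note: potency is the fitted concentration of half-maximal effect; 100% = response of the positive control SU9516; nearly all actives have a fitted effect of over 60% in size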
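Alpha7betagal+/- myoblasts (passage 13) were plated 16-24 hr, then exposed to compounds (1:260 dilution of DMSO stock) for 48 hours at 37C. After MPER lysis, β-galactosidase reporter activity was read as FDG fluorescence (ex 480/em 540) after 30 minutes.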
The depositor's hits bear a star; ? = inconclusive; · = not tested or not shown; & = joins results of further samples; [ ] = remark or other dose. Unless noted, calls come from the whole dose curve; as a rule, active = well fitted curve in the direction sought with a large enough effect; inconclusive = small, poorly fitted or top-dose-only effect, or another doubt; inactive = no such curve, though single readings can be large; an effect the other way counts as inactive or inconclusive.

SMILES | PTAP TSG101 blk | Menin-MLL TR inh | CXXC DNA block | S-ASM inh | AT treatment | Mito fusion act | MBNL1 CUG block | TCR activator | a7 integrin act
CC(C)[N+]1(C)[C@@H]2CC[C@@H]1CC(OC(=O)C(CO)c1ccccc1)C2 (some centres undefined) | -4% | · | · | 0% | 6% | 2% | · | -4% | ·
CCCCCCCCCS(=O)(=O)N/N=C/c1cccc([N+](=O)[O-])c1 | -6% | -32% | -1% | ? | 0% | ? | -6% | 12% | -14%
Cc1ccc(Cn2nc(C)c(NC(=O)c3nn(C)cc3Cl)c2C)cc1 | -1% | -6% | -2% | 6% | -3% | 1% | 5% | -1%[46.1 µM] | 2%
O=C(NCC(=O)N(Cc1ccccc1)C(C(=O)NC1CCCC1)c1ccco1)c1ccco1 (centres undefined) | -4% | ? | 10% | 2% | -1% | 0% | ? | -8% | -31%
CC1=C(OC(=O)c2ccccc2)C(C)(C)C(c2ccccc2)OC1=O (centres undefined) | -3% | -12% | 187%[activator] | -6% | 0% | 1% | 0% | 10% | -5%
CC(=O)N/C(=C\c1ccccc1)C(=O)OC(C)C(=O)NCc1ccccc1 (centres undefined) | -2% | · | · | 1% | 11% | -2% | · | 3% | -2%
O=C(NCN1CCOCC1)c1cnccn1 | -3% | 6% | -1%&-3% | 1% | 3% | 1% | -5% | -5% | ?
COC(=O)c1cc(S(=O)(=O)NCC2CCN(Cc3cccc(F)c3)CC2)cn1C | -6% | -7% | 30% | 4% | -7% | -14% | -16% | 3% | 16%
Cn1nc(C(=O)NCc2ccccc2)c2c1-c1ccccc1S(=O)(=O)C2 | -13% | 4% | 6% | 0% | -3% | 19% | 9% | 3% | 47%
CC[N+](C)(C)Cc1ccccc1Br | 1% | 5% | 8% | 2% | 5% | -3% | -5% | -11% | ·
CN(CCO)c1cc(NCCCN2CCC(Cc3ccccc3)CC2)c2nonc2c1[N+](=O)[O-] | -9% | ? | 10% | -1% | 3% | 3% | ? | 7% | 2%
c1ccc2oc(SCc3cn4ccsc4n3)nc2c1 | -5% | -4% | 3% | 2% | 12% | -6% | 1% | 2% | 10%
Cc1onc(-c2ccccc2)c1-c1nc2ccccc2c(=O)o1 | -8% | 12% | ? | -2% | 0% | 4% | -1% | 1% | 23%
CC(C)Cc1nnc(NC(=O)CCC(=O)Nc2ccc(Cl)cc2)s1 | 0% | 19% | 6% | -1% | -4% | -3% | -2% | 2% | 1%
COc1cc2nc(N3CCN(C(=O)[C@H]4CCCO4)CC3)nc(N)c2cc1OC | · | -5%[24.8 µM] | · | · | · | · | · | · | ·
COC(=O)C1=NN(c2ccc(OC)cc2)C2C(=O)N(c3ccccc3OC)C(=O)C12 (centres undefined) | -5% | · | 8% | -2% | -1% | 1% | 18% | -3% | -3%
Cn1c2ccccc2c2cnn(CC(=O)Nc3ccccc3Br)c(=O)c21 | -6% | · | 2% | -1% | 33% | 4% | -10% | 0% | -22%
Cc1ccccc1Nc1ccc(S(=O)(=O)N2CCOCC2)cc1[N+](=O)[O-] | -1% | -29% | 9% | -10% | -22% | 21% | ? | -3%[46.1 µM] | 21%
NC(N)=[N+]1CCc2ccccc2C1 | · | 1% | 21% | · | · | ? | · | · | ·
Cn1c([N+](=O)[O-])cnc1COC(N)=O | -3% | 11% | -2% | 0% | 9% | 0% | ? | 1% | ·
COc1cccc2cc(C(=O)CS(=O)(=O)c3ccc(C(C)(C)C)cc3)c(=O)oc12 | -4% | · | -17% | -7% | -3% | -1% | 0% | -2% | 2%
CCc1nnc(NC(=O)CCS(=O)(=O)c2ccccc2)s1 | -1% | 4% | 10% | 0% | -3% | -8% | -8% | -3% | -36%
Cc1cn([C@H]2C[C@H](N=[N+]=[N-])[C@@H](CO)O2)c(=O)[nH]c1=O | 2% | -7%&6% | 3%&-4% | 5% | -1% | -4%&-2% | 14% | 1% | ·
COC(=O)c1c(-c2ccc(OC)cc2)sc2ccc(-c3ccc4c(c3)OCO4)cc12 | -4% | · | · | 17% | 1% | · | · | 9% | -5%
Cc1cn([C@H]2C[C@@H](N=[N+]=[N-])[C@@H](CO)O2)c(=O)[nH]c1=O | · | 1% | -10% | · | · | · | · | · | ·
CC1CCC(NC(=O)c2nn(C)c3c2CS(=O)(=O)c2ccccc2-3)CC1 (centres undefined) | -3% | · | 6% | -2% | -7% | -7% | 0% | 7% | -70%[inhibitor]
O=C(NCC(=O)N(Cc1cccs1)C(C(=O)NC1CCCCC1)c1cccnc1)c1ccco1 (centres undefined) | -5% | 15% | 0% | 0% | · | -4% | -25% | -3%[46.1 µM] | -20%
O=C(CCn1cncn1)N1CCN(S(=O)(=O)c2ccc(Cl)cc2)CC1 | -1% | -6% | -4% | 0% | -4% | 3% | 0% | -4% | -47%[inhibitor]
COc1ccc(-c2cn3cc(Cl)ccc3n2)cc1OC | -1% | -3% | 0% | 21% | 10% | 14% | 4% | 3% | 25%
Cc1ccc2c(CC(=O)NNC(=O)c3ccncc3)coc2c1 | -1% | · | · | -2% | 10% | -6% | · | 6% | 0%
CCCc1nnc2n1N=C(c1ccc(OC)c(OC)c1)CS2 | -9% | -1% | 4% | 4% | -2% | -3% | ? | 4%[46.1 µM] | -24%
Cc1ccc(C)c(OCc2cc(C(=O)N3CCNC(=O)C3)no2)c1 | 1% | ? | 25% | 2% | 10% | -17% | -17% | -6% | 6%
CC(=O)c1cccc(NC(=O)CNC(=O)Cc2ccccc2)c1 | -3% | -23% | -10% | 28% | -5% | 1% | -10% | 1% | 29%
CC(C)NCC(O)COc1cccc2ccccc12 (centres undefined) | 2% | -2%&2%&6% | -18%&10% | 2% | 3% | -32%&-22%[inhibitor] | 0% | -5% | ·
CN1CCNC(=O)C1CC(=O)NCCc1ccccc1F (centres undefined) | -1% | -7% | -2% | 3% | 0%[11.5 µM] | 3% | -2% | -3% | 16%
CO[C@@]12[C@H](COC(N)=O)C3=C(C(=O)C(C)=C(N)C3=O)N1C[C@@H]1N[C@@H]12 | -1% | · | · | 16% | 2% | -3% | · | 6% | ·
CCc1nc(N)nc(N)c1-c1ccc(Cl)cc1 | 0% | ? | 7% | -2% | 13% | 3% | -2% | -15% | ·
COC(=O)c1cc(NC(=O)c2c(Cl)cnn2C)cc(C(=O)OC)c1 | -5% | 14% | -1% | 1% | -7% | 3% | ? | -9%[46.1 µM] | 3%
CCN(CC)C(=O)CSC(Nc1ccc(F)cc1)=C(C#N)C#N | 3% | · | 28% | 0% | -31% | 2% | 18% | 10% | 17%
O=C1N=C(O)CN1/N=C\c1ccc(-c2ccc([N+](=O)[O-])cc2)o1 | · | 1%&12%[24.8 µM] | · | · | · | · | · | · | ·
CNC(=O)Oc1ccc2c(c1)[C@@]1(C)CCN(C)[C@@H]1N2C | · | -17%&22%[24.8 µM] | · | · | · | · | · | · | ·
N=C(N)N1CCc2ccccc2C1 | · | 4% | 2%&-3% | · | 13% | 3% | 8% | · | ·
CC(C)Cc1nnc(NC(=O)C2CCN(C(=O)c3ccc(F)cc3)CC2)s1 | -5% | · | · | · | 5% | -2% | · | -4% | 0%
COc1ccc(S(=O)(=O)c2c(O)c3ccc(C(=O)Nc4ccccc4Cl)cc3[nH]c2=O)cc1 | -11% | 36%[activator] | 23% | 4% | -5% | 8% | -3% | -93% | 3%
CNS(=O)(=O)Cc1ccc2[nH]cc(CCN(C)C)c2c1 | -3%&-1% | 16%&-6% | 1%&-1% | 0%&2% | -4% | -1% | -9% | 5%&-109% | ·
Cc1cc(N/N=C\c2ccc(Br)cc2)nc(-n2nc(C)cc2C)n1 | -1% | · | 25% | -4% | -1% | -1% | 2% | 4% | -51%[inhibitor]
Cc1ccc(CN(C)C(=O)COc2ccc(S(=O)(=O)N3CCCC3)cc2[N+](=O)[O-])c(C)c1 | -8% | · | · | 14% | -8% | 12% | · | 5% | -37%
C[C@H](NS(=O)(=O)c1ccc(Cl)cc1)C(=O)OCC(=O)c1ccc[nH]1 | -1% | · | -1% | 4% | -13% | 2% | 2% | 2% | ?
CCN(CC)CC(=O)N1c2ccccc2Oc2c(c(=O)n(C)c(=O)n2C)C1c1cccc([N+](=O)[O-])c1 (centres undefined) | 0% | · | 2% | 0% | 47% | -1% | ? | -1% | -14%

These rows are one share of the data; the hit share may differ from the screen's.
